Bioassay records from PubChem BioAssay.
Sa growth inh = blocks Staphylococcus aureus growth; S. aureus RN4220 growth, OD600, 20 h, 42 °C; stronger effect = lower value; relative growth, % (no concentration beside the values); 170,000 tested, 0.53% active;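 active = growth at 42 °C up to 50% and 20 or more points under that at 30 °C, or under 10% at both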;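 note: 300 nL library stock went into each well; scaled to the means of positive and negative controls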
HCMV NEC inh = cytomegalovirus nuclear egress complex inhibition. 190,000 tested, 0.15% active. inhibition, % (test concentration not listed). HTRF UL50-UL53 interaction, normalized percent inhibition;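 active = both replicates at 50% or more, plus weaker picks with an unusually low signal ratio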;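 note: stock transfer was 100 nL into about 20 µL; 0% = negative control wells and 100% = wells with untagged competitor protein; inactives centre near -12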
GIV Gai3 FP = blocks GIV peptide binding to rat Galpha-i3 | Galpha-i3/FITC-GIV peptide fluorescence polarization, 90 min; stronger effect = lower value; scaled: aluminum fluoride 0%, vehicle 100% | percent of control (FP), % (no concentration beside the values) | 210,000 tested, 0.42% active;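 active = replicate mean at 85% of control or lower, very high polarization wells dropped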;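 note: wells of about 15 µL received 100 nL stock; the first replicate is given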
Target sequence (P08753 whole entry, looked up): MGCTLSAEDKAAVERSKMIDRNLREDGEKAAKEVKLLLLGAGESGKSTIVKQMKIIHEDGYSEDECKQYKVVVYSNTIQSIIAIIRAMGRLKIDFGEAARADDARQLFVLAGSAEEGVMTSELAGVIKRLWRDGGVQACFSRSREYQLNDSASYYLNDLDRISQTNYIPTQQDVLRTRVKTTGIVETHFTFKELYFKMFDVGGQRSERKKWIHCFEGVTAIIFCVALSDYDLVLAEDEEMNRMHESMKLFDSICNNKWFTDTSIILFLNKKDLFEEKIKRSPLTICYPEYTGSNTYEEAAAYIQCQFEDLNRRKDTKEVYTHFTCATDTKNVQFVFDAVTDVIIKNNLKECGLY
Sa growth inh second temp = also measured in Sa growth inh; calls as there; relative growth, %; measured here: growth at 30 °C;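 optical density after 20 h as mean of two plates; 100% = untreated growth and lower means inhibition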
The depositor's hits bear a star; x = not tested or not shown. Outcome played no part in choosing rows; overall some 0.79% were active at least once.

SMILES | Sa growth inh | Sa growth inh second temp | HCMV NEC inh | GIV Gai3 FP
Cc1ccc(-c2[nH]c3ccccc3c2SCCNC(=O)c2ccc(S(=O)(=O)N(C)C)cc2)cc1 | 83 | 95 | 13 | 106
Cc1ccc(S(=O)(=O)NCCCO)cc1C(=O)O | 101 | 101 | 3 | 101
CC(=O)NC12CC3CC(C1)CC(C(=O)Nc1ccc(N4CCCCC4)cc1)(C3)C2 | 84 | 92 | -23 | x
CCOC(=O)c1cnn(-c2cccc(Cl)c2)c1C1CCN(C(=O)OC(C)(C)C)CC1 | 107 | 87 | -17 | 107
CCC1CCCCN1C(=O)COC(=O)COc1ccc(Br)cc1 (stereo unspecified) | 106 | 84 | -13 | x
Cc1cccc(C2CN(C)CCc3c2cc(O)c(O)c3Cl)c1 (stereo unspecified) | x | x | -15 | 105
Cc1cc(C)c2cc(C(=O)N3CCC(Cc4ccccc4)CC3)[nH]c2c1 | 128 | 88 | -16 | 105
CCOc1ccc(-c2cc(NC(=O)CCSCCc3ccccn3)on2)cc1OCC | 109 | 78 | -6 | 108
Cc1ccc(C(=O)COC(=O)c2cccc(NC(=O)c3ccc(Br)cc3)c2)cc1 | 108 | 88 | -33 | 105
NC(=S)c1cnc(-c2ccncc2)nc1N | 97 | 87 | -73 | 102
Cc1ccc(C(=O)c2cn(Cc3ccccc3)c3ccccc3c2=O)cc1 | 99 | 75 | 5 | 98
CCOC(=O)N1CCN(C(=O)c2ccc3nc(-c4ccccc4)c(-c4ccccc4)nc3c2)CC1 | 91 | 97 | -4 | x
Cc1cc(S(=O)(=O)N2CCN=C2c2ccccc2)ccc1F | 93 | 88 | 3 | 100
C=CCN1C(=O)c2ccccc2Sc2ccc(C(=O)NCC(OC)OC)cc21 | 110 | 88 | x | 98
COc1ccc(OC)c(N(CC(=O)NCc2ccccc2)S(=O)(=O)c2ccccc2)c1 | 109 | 90 | -10 | 109
C=CCn1c(SCC(=O)c2cccs2)nc2sc(C)cc2c1=O | 115 | 80 | -26 | 98
Cc1ccc(-c2n[nH]c(=O)c3ccccc23)cc1S(=O)(=O)N1CCN(Cc2ccccc2)CC1 | 92 | 80 | -1 | 102
O=C1CC(N2CCCCC2)C=C1Nc1ccc(F)cc1 (stereo unspecified) | 97 | 84 | -34 | x
CCOc1ccc(C(=O)NCCc2csc(-c3cccc(F)c3)n2)cc1OCC | 89 | 92 | x | 110
Cc1n[nH]c(=O)c2noc(/C=C/c3ccc(Cl)c(Cl)c3)c12 | 91 | 94 | -34 | 102
FC(F)(F)c1nnc2ccc(N3CCCCC3)nn12 | 111 | 84 | -8 | 100
N#CC1=C2SCN(CCCc3ccccc3)CN2C(=O)CC1c1ccc(Cl)cc1 (stereo unspecified) | 97 | 60 | -22 | 105
CCc1nc2sc3c(c2c(=O)n1O)CCC3 | 81 | 96 | 2 | x
COc1cccc(CNC(=O)CN2C(=O)C(C)=C(c3ccc(C)c(C)c3)S2(=O)=O)c1 | x | x | -2 | 103
CC1CCN(Cc2ccc(NC(=O)c3ccc4c(=O)n5c(nc4c3)CCCCC5)cc2)CC1 | 99 | 85 | 3 | 106
O=C(NC1CCCCCC1)C1Cc2ccccc2CN1C(=O)c1ccco1 (stereo unspecified) | 108 | 102 | -9 | x
CCC(=O)N1N=C2CC(C)(C)OCC2C1c1ccccc1 (stereo unspecified) | 104 | 82 | 1 | x
O=C(c1cccc(N2C(=O)C3CC=CCC3C2=O)c1)N1CCCc2ccccc21 (stereo unspecified) | 106 | 95 | 4 | 104
COc1cc(OC)c(NC(=O)C2CCN(C(=O)c3ccc(-c4noc(C)n4)cc3)CC2)cc1Cl | x | x | -19 | 102
COC(=O)c1c(NS(=O)(=O)c2ccccc2)csc1C | 100 | 91 | -16 | 97
Cc1ccc(NC2SC(=O)NC2=O)cc1 (stereo unspecified) | 132 | 77 | -52 | x
N#Cc1c(NC(NC(=O)c2ccccc2)C(=O)c2cccs2)sc2c1CCCC2 (stereo unspecified) | 90 | 44 | x | 106
O=C(CSc1nc(-c2ccc(F)cc2)[nH]c1-c1ccccc1)Nc1ccccc1 | 100 | 87 | 0 | 102
O=C(NCc1ccco1)C1c2ccccc2Oc2ccccc21 | 96 | 71 | -14 | 113
COc1ccc(-n2nnnc2C2CCN(S(=O)(=O)c3ccc(C)cc3)CC2)cc1 | 102 | 94 | 4 | 102
COCCCNC(=O)c1cc(C)nc2c1c(=O)n(C)c(=O)n2C | x | x | -29 | 101
COc1ccc(C2=NOC(C(=O)NCCc3ccccc3)C2)cc1 (stereo unspecified) | 110 | 100 | 4 | 106
CC(C)(C)C(=O)CSc1nc2c(sc(=S)n2CCc2ccccc2)c(=O)n1Cc1ccco1 | 108 | 86 | x | 106
Cc1ccc(-c2nnc(N(CC(C)C)C(=O)c3ccco3)s2)cc1 | 106 | 86 | -2 | 103
CC(C)c1ccc(-c2ccc(SCc3nc(-c4ccc5c(c4)OCO5)no3)nn2)cc1 | x | x | -12 | 108
O=C1OCCC1OC(=O)C12CC3CC(CC(C3)C1)C2 (stereo unspecified) | 115 | 89 | -37 | x
Cc1cccnc1NC(=O)c1ccccc1C(=O)O | 96 | 91 | 7 | 109
COc1ccc(NC(=O)C2COc3ccccc3C2)cc1Cl (stereo unspecified) | 87 | 95 | x | 102
O=S(=O)(c1ccc(Br)cc1)N1CCOCC1 | 96 | 72 | -1 | 101
O=C(Cc1ccc(-n2c(=S)[nH]c3ccccc3c2=O)cc1)NC1CCCCC1 | 115 | 89 | x | 99
O=c1oc2cc(O)ccc2cc1-c1cccc(Br)c1 | 77 | 72 | -18 | x
CCC(=O)N(Cc1cc(=O)[nH]c2ccccc12)C1CCCCC1 | 91 | 90 | -25 | 103
Cc1ccc(C(=O)N/C(=C\c2cccnc2)C(=O)N2CC3CC(C2)c2cccc(=O)n2C3)cc1 (stereo unspecified) | 94 | 88 | -27 | 101
Cc1ccc(NC(=O)c2nnn(Cc3cccc(C(F)(F)F)c3)c2N)c(C)c1 | 101 | 101 | 0 | 102
CCC(C)(C)n1nnnc1C(C(C)C)N(Cc1cccnc1)Cc1ccco1 (stereo unspecified) | 102 | 76 | -1 | 103

Arranged by number of heavy atoms (low to high): part of the list above.
SMILES | Sa growth inh | Sa growth inh second temp | HCMV NEC inh | GIV Gai3 FP
Cc1ccc(NC2SC(=O)NC2=O)cc1 (stereo unspecified) | 132 | 77 | -52 | x
O=S(=O)(c1ccc(Br)cc1)N1CCOCC1 | 96 | 72 | -1 | 101
O=C1OCCC1OC(=O)C12CC3CC(CC(C3)C1)C2 (stereo unspecified) | 115 | 89 | -37 | x
COC(=O)c1c(NS(=O)(=O)c2ccccc2)csc1C | 100 | 91 | -16 | 97
CCC(=O)N1N=C2CC(C)(C)OCC2C1c1ccccc1 (stereo unspecified) | 104 | 82 | 1 | x
COc1ccc(NC(=O)C2COc3ccccc3C2)cc1Cl (stereo unspecified) | 87 | 95 | x | 102
COCCCNC(=O)c1cc(C)nc2c1c(=O)n(C)c(=O)n2C | x | x | -29 | 101
Cc1ccc(-c2nnc(N(CC(C)C)C(=O)c3ccco3)s2)cc1 | 106 | 86 | -2 | 103
O=C(NC1CCCCCC1)C1Cc2ccccc2CN1C(=O)c1ccco1 (stereo unspecified) | 108 | 102 | -9 | x
O=C(Cc1ccc(-n2c(=S)[nH]c3ccccc3c2=O)cc1)NC1CCCCC1 | 115 | 89 | x | 99
O=C(c1cccc(N2C(=O)C3CC=CCC3C2=O)c1)N1CCCc2ccccc21 (stereo unspecified) | 106 | 95 | 4 | 104
CC(C)c1ccc(-c2ccc(SCc3nc(-c4ccc5c(c4)OCO5)no3)nn2)cc1 | x | x | -12 | 108
CC(C)(C)C(=O)CSc1nc2c(sc(=S)n2CCc2ccccc2)c(=O)n1Cc1ccco1 | 108 | 86 | x | 106
Cc1ccc(C(=O)N/C(=C\c2cccnc2)C(=O)N2CC3CC(C2)c2cccc(=O)n2C3)cc1 (stereo unspecified) | 94 | 88 | -27 | 101

(list continues)
SMILES | Sa growth inh | Sa growth inh second temp | HCMV NEC inh | GIV Gai3 FP
CCn1nc(C)c(CCN(C)C(=O)Nc2ccccc2)c1C | x | x | -10 | 104
COc1ccc2c(c1)CC(C(=O)NCCCN1CCN(c3ccccc3F)CC1)CO2 (stereo unspecified) | 95 | 87 | x | 98
N#Cc1cnc(Nc2cccc(C(F)(F)F)c2)nc1N | 100 | 75 | 42 | 103
O=C(CN1CCN(C2CCCCC2)CC1)N(c1ccccc1)c1ccc(O)cc1 | 117 | 90 | -2 | 106
CCCc1ccc(OCCNC(C)=O)c(OC)c1 | 106 | 100 | -36 | 103
CC(=O)N1c2ccccc2N(C)C(=O)C1(C)C | 81 | 94 | -6 | 103
CCN1CCN(C(c2cccnc2)c2c(NC(C)=O)sc3c2CCCC3)CC1 (stereo unspecified) | 96 | 102 | 10 | 107
Cc1c(N/C=C/C(=O)C(F)(F)F)c(=O)n(-c2ccccc2)n1C | 88 | 83 | -44 | x
CCCN1CC=C2C(C#N)=C(N)C(C#N)(C#N)C3(C(=O)Nc4ccccc43)C2C1 (stereo unspecified) | 103 | 57 | x | 125
COc1cccc2cc(-c3nnc(-c4ccc([N+](=O)[O-])cc4)o3)c(=O)oc12 | x | x | 21 | 108
N#CCCN/N=C/c1ccc(-c2ccc(SC(F)F)cc2)o1 | 48* | 69* | -96 | x
CCc1ccc(OCc2ccc(C(=O)Nc3nc4ccccc4n3CCN3CCCCC3)o2)cc1 | 98 | 90 | -4 | 108
CCOC(=O)c1cnc2c(C(F)(F)F)cccc2c1N1CCN(C)CC1 | 86 | 81 | x | 110
CCOc1ccc(NC(=O)c2oc3ccc(Br)cc3c2C)c2cccnc12 | x | x | -10 | 102
CCS(=O)(=O)c1ncc(Cl)c(C(=O)N(Cc2ccccc2)Cc2ccco2)n1 | 22 | 14 | -15 | 102
CCOc1ccc(-n2c(SCC(N)=O)nc3c(oc4ccccc43)c2=O)cc1 | 99 | 84 | -38 | 103
Cc1ccc2c(=O)cc(C(=O)Nc3ccc(S(N)(=O)=O)cc3)oc2c1 | x | x | -35 | 105
C=CCn1c(=S)sc2c(C(C#N)C#N)ncnc21 | 120 | 97 | 9 | 105
COC(=O)c1ccc(NC(=O)N2CCOc3ccc(C)cc32)cc1 | 108 | 81 | x | 108
Cc1ccc(C(=O)n2nc(C)c(Sc3ncccn3)c2C)cc1 | 101 | 107 | 1 | 109
CCOC(=O)c1c(C)c(C#N)c(/N=C/N(C)C)n1-c1ccc(Cl)cc1Cl | 100 | 93 | 6 | 97
COc1ccccc1N(CC(=O)Nc1cc(C)on1)S(=O)(=O)c1ccc(Cl)cc1 | 94 | 93 | -31 | x
Cn1nnnc1SCCNCc1ccccn1 | 87 | 86 | -26 | 99
CC1CN(c2oc(-c3ccc(F)cc3)nc2S(=O)(=O)c2ccccc2)CC(C)O1 (stereo unspecified) | x | x | -10 | 105
COc1cc2c(cc1OC)C(C)N(S(=O)(=O)c1ccc3[nH]c(=O)ccc3c1)CC2 (stereo unspecified) | 90 | 68 | x | 108

2 entries from above, with each value named:
Molecule: CCS(=O)(=O)c1ncc(Cl)c(C(=O)N(Cc2ccccc2)Cc2ccco2)n1
  Sa growth inh = 22	Sa growth inh second temp = 14	HCMV NEC inh = -15	GIV Gai3 FP = 102

Molecule: Cn1nnnc1SCCNCc1ccccn1
  Sa growth inh = 87	Sa growth inh second temp = 86	HCMV NEC inh = -26	GIV Gai3 FP = 99

Next records follow.
SMILES | Sa growth inh | Sa growth inh second temp | HCMV NEC inh | GIV Gai3 FP
O=C1CN(c2ccccc2)C(=S)N1C(=O)c1ccccc1 | 104 | 81 | -22 | 104
Cc1cc(C)c(NC(=O)C(=O)NCC(c2cccnc2)N2CCN(Cc3ccccc3)CC2)c(C)c1 (stereo unspecified) | 113 | 89 | -11 | 103
Clc1ncc(C=NCc2ccccc2)s1 | x | x | 2 | 103
CC1CCCN(C(=O)c2cc3ccc4cccnc4c3[nH]2)C1 (stereo unspecified) | 112 | 91 | x | 101
O=C(CCS(=O)(=O)c1ccc(Br)cc1)N1CCCCCC1 | 109 | 95 | x | 110
O=C(CSc1ccccc1)N1CCC(n2cccc2)CC1 | 94 | 80 | -5 | 100
CCOC(=O)C1=C(C)N=c2s/c(=C\c3ccc(OCC(=O)O)cc3)c(=O)n2C1c1ccc(F)cc1 (stereo unspecified) | x | x | -60 | 105
COc1cccc(C(=O)Nc2nnc(S(=O)(=O)N3CCCC3)s2)c1 | 137 | 56 | -11 | 105
CCOC(=O)c1c(NC(=O)COC(=O)/C=C/c2ccco2)sc(CC)c1C | 106 | 91 | -7 | x
O=C(Nc1nnc(S(=O)(=O)N2CCOCC2)s1)c1ccccc1F | 151 | 104 | 3 | 101
Cc1ccc(/C=C(\C#N)S(=O)(=O)c2c(N)oc(C)c2C)cc1 | 106 | 112 | 0 | 117
Nc1ncc(S(=O)(=O)Nc2ccc(F)cc2F)cn1 | 100 | 82 | x | 102
N#Cc1ccc(COC(=O)c2cc3ccccc3c(=O)[nH]2)cc1 | 88 | 94 | -24 | x
O=C1OC(c2ccccc2)=N/C1=C\c1ccccc1C(F)(F)F | 120 | 82 | x | 107
COC(=O)c1c(C)[nH]c(C(=O)N2CCC(CC(=O)NCCc3c[nH]c4ccc(Cl)cc34)CC2)c1C | x | x | -5 | 112
Cn1c(C2CC2)n[nH]c1=S | 103 | 103 | 2 | 106
CC12CN3CC(C)(CN(C1)C3c1ccc(O)cc1O)C2=O (stereo unspecified) | 110 | 92 | x | 102
O=C(CSc1nnc(-c2ccncc2)o1)NC1C2CC3CC(C2)CC1C3 (stereo unspecified) | 98 | 81 | 15 | 100
CCCN1CCN(CCCNC(=O)c2ccc3c(c2)sc2nc(-c4ccc(OCC)cc4)cn23)CC1 | 101 | 85 | -2 | 93
